Bioassay records: PubChem, several laboratories
Bfl-1 A1 inh – caspase 3/7 activation in MEF A1-2A-BIM cells, primary screen, A1 inhibitor project, cell-based, luminescence, HTS; caspase activation, % (no concentration beside the values); Caspase-Glo 3/7 luminescence, 3 h; percent of clofoctol response, vehicle zero; 330,000 compounds, 0.066% hits;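 active = over half of replicate activation scores above 10%, or exactly half above 10 with the replicate mean above 10; inconclusive = replicate mean below 10 yet half the replicates above 10; inactive = over half of replicates below 10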;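 note: wells of about 30 µL received 50 nL stock; many hits fall short of the cut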
rRNA inh HTS – reduced GFP signal of wild-type E. coli, primary screen, bacterial rRNA inhibitor project, GFP/RFP fluorescence, OD600, single point | GFP signal change (wild-type ribosome), % (test concentration not listed) | E. coli WT GFP vs humanized-ribosome RFP mutants, 24 h; hits give low values; DMSO median 0, no signal -100 | 350,000 compounds, 1.6% hits;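 active = significant combined selectivity score with lowered wild-type GFP, culture density cut under 30%, mutant RFP and density less affected; inactive = any of these conditions unmet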; note: one replicate is shown; some compounds called inactive have numbers as strong as hits
T cruzi inh – inhibitors of intracellular T. cruzi growth, primary screen, luminescence, NIH3T3 host cells. T. cruzi beta-gal in NIH3T3, 90 h. inhibition, % (concentration not given with the values). 300,000 compounds, 1.4% hits. AID 1885, 2009;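 active = mean inhibition across valid replicates above about 55%, limit read from the data; inconclusive = mean below that limit but half or more replicates reach it; inactive = mean below it, under half of replicates reach it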;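 note: signal also drops with host cell toxicity which is not excluded here; 0% = plate median of DMSO wells and 100% = zero luminescence signal; higher percent means less beta-gal luminescence so fewer parasites; stock transfer was 50 nL into about 50 µL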
Beta cell apopt – inhibitors of cytokine-induced beta cell apoptosis, primary screen, luminescence. INS-1E cytokine-induced death, ATP luminescence, 48 h; percent of positive-control rescue, neutral wells zero. protection from apoptosis, % (concentration not given with the values). AID 435005, 2010. 300,000 compounds, 0.8% hits;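 active = all replicates at 75% or more, or half of them and the mean; inconclusive = half reach 75% but not the mean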;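 note: 0% = cytokine-treated negative control wells and 100% = positive control rescue; higher means more ATP so stronger rescue from cytokine killing; wells of about 40 µL received 100 nL stock; the first replicate is given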
MLL AF4-AF9 inh – inhibitors of AF4 peptide binding to AF9, primary screen, biochemical, AlphaScreen, biotin-AF4 peptide, FLAG-AF9, single point | AID 651704, 2012 | inhibition, % at 10 µM | 350,000 compounds, 0.47% hits | Protein AF-9 (Homo sapiens), P42568;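 active = every replicate reaching a set inhibition limit, whatever the replicate mean, cut at about 25% in these data; inconclusive = mean inhibition reaches that limit but some replicates miss it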;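 note: 0% = plate neutral control median and 100% = total signal loss; the record names both 10 and 1 µM as test concentration; the first replicate is given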
Target sequence (P42568 whole entry, looked up): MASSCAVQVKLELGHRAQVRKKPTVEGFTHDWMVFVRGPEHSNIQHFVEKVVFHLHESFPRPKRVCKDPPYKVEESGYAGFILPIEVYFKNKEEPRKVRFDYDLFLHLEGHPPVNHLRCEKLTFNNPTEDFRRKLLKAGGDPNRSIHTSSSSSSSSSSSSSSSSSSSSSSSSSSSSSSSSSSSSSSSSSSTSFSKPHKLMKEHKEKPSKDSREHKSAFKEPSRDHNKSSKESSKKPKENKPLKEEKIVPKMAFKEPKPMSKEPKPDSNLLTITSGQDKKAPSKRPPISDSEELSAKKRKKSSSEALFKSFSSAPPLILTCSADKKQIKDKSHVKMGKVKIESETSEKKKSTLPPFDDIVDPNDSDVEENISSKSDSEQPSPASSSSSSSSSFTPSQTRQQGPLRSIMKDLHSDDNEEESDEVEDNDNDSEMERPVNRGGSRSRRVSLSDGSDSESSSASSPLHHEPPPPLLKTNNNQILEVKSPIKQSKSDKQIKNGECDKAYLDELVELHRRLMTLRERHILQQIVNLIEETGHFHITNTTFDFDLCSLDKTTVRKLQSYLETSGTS
UCH37 DUB inh – inhibitors of human UCH37 deubiquitinase, primary screen, biochemical, Ub-AMC cleavage, fluorescence; AID 588478, 2011; purified proteasome/UCH37; inhibition, % (concentration not given with the values); 330,000 compounds, 0.33% hits;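 active = mean of two replicates above 20%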;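 note: 0% = compound-free wells with enzyme and 100% = wells lacking proteasome; stock transfer was 100 nL into about 20 µL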
Target sequence (Q9Y5K5 whole entry, looked up): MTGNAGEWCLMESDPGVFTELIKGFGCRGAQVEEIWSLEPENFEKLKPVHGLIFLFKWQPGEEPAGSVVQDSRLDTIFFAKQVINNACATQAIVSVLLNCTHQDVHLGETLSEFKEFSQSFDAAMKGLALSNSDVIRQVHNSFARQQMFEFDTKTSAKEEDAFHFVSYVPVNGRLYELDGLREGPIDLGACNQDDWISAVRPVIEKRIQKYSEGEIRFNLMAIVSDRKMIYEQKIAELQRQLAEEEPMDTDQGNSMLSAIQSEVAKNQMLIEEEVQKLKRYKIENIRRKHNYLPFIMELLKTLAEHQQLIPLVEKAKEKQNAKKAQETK
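Reagent: Ub-AMC substrate; assay system: Proteasome-associated human UCH37 deubiquitinase; controls: no-proteasome and no-compound wells; read-out: % inhibition of Ub-AMC cleavage fluorescence; timing: 30 min preincubation with enzyme, 25 min cleavage at room temperature; signal: AMC fluorescence from Ub-AMC cleavage, excitation 355 nm, emission 460 nm; buffer or medium: Tris-HCl pH 7.4 plus ovalbumin, ATP-MgCl2, DTT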
E coli growth – E. coli growth inhibition, primary screen, OD600 | Escherichia coli growth, 23 h; hits give low values | OD600 absorbance (concentration not given with the values) | 330,000 compounds, 0.21% hits | AID 1053175, 2014;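 active = OD600 absorbance below the run mean of sample wells minus 3.6 SD, in any replicate, cut at about 0.56 in these data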;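 note: stock transfer was 300 nL into about 60 µL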
FGF22 binding – binders of human FGF22 protein, primary screen, FGF22 synaptogenesis inhibitor project, biophysical, thermal shift, single point; calls only at 9.99 µM; 340,000 compounds, 1.5% hits; AID 651658, 2012; recombinant FGF22 thermal shift, SYPRO orange fluorescence; percent of sucrose octasulfate shift, DMSO zero;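 active = melting point raised past a set limit in the mean and every replicate; inconclusive = no clear call; three in four hits are not shown here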
Target sequence (Q9HCT0 whole entry, looked up): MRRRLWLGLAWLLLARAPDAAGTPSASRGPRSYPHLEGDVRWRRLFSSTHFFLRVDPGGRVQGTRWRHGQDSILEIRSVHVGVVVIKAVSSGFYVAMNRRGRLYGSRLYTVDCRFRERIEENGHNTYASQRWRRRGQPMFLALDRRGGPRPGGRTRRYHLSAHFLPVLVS
rRNA inh HTS OD600 – further read-out of rRNA inh HTS, marked with its call; OD600 change, %; measured here: OD600 growth;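 optical density of the mix in the first replicate; 0 = DMSO median and -100 = no signal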
rRNA inh HTS RFP – also measured in rRNA inh HTS; calls as there; RFP signal change, %; measured here: RFP humanized mutant strains;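 first replicate; 0 = DMSO median and -100 = no signal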
* marks the source's active call; other numbers are inactive results; i = inactive; ? = inconclusive; nt = not tested or not shown. An excerpt; count on the stated rates, not on these rows.

item | SMILES | Bfl-1 A1 inh | rRNA inh HTS | rRNA inh HTS OD600 | rRNA inh HTS RFP | T cruzi inh | Beta cell apopt | MLL AF4-AF9 inh | UCH37 DUB inh | E coli growth | FGF22 binding
1 | Cc1ccc(F)cc1NC(=O)CN1C(=O)NC(C)(c2ccc3c(c2)OCCO3)C1=O (centres undefined) | -0.3 | 12 | 12 | 2.5 | nt | -6 | -2.0 | -0.7 | 0.7 | i
2 | Nc1nc(NCCCN2CCOCC2)nc(Nc2ccccc2)c1[N+](=O)[O-] | 0.2 | nt | nt | nt | -2 | 0 | nt | 3.4 | 0.69 | nt
3 | CC(C)OCCCn1c(SC(C)C(=O)NCC2CCCO2)nc2cc(Cl)ccc2c1=O (centres undefined) | 1.3 | -1 | 5 | -4.0 | 12 | 8 | -1.2 | 2.5 | 0.65 | i
4 | CCC(C)c1ccccc1OCCOCCN1CCCC1 (centres undefined) | 0.4 | nt | nt | nt | 32 | 1 | nt | -0.7 | 0.67 | nt
5 | Fc1cccc2sc(Nc3nnc(-c4ccccc4)o3)nc12 | -2.5 | nt | nt | nt | 0 | 26 | nt | -84 | 0.72 | nt
6 | O=C(O)c1cc2ccc3ccccc3c2[nH]1 | 0.1 | -26* | -13* | -2.0* | -26 | -6 | 1.7 | -13 | 0.67 | i
7 | O=C(C1CCCN(Cc2nc(-c3cccs3)no2)C1)N1CCOCC1 (centres undefined) | 0.4 | 13 | 3 | -4.2 | -8 | -3 | 8.5 | 0.8 | 0.68 | i
8 | O=C(O)c1ccc(/C=C/c2ccc3cccc(O)c3n2)cc1 | nt | -17 | -14 | -8.1 | -19 | nt | 2.0 | 14 | 0.67 | i
9 | O=C(NNc1ccccc1C(F)(F)F)c1cccs1 | -0.8 | 0 | -1 | 0.3 | 10 | -5 | -2.7 | 2.5 | 0.7 | nt
10 | CC(=O)Nc1nc(CC(C)C)cc(-c2ccco2)c1C#N | -0.3 | nt | nt | nt | -37 | -7 | nt | -68 | 0.68 | nt
11 | CC(C)N1CCN(Cc2ccc(OC3CCCC3)cc2)CC1CCO (centres undefined) | -0.1 | 24 | 20 | -0.8 | 16 | 4 | 3.6 | 6.2 | 0.66 | i
12 | NC(=O)CCn1c(C(=O)c2ccc(Cl)cc2)c2ccccc2[n+]1[O-] | 0.4 | nt | nt | nt | -21 | nt | nt | 28* | 0.68 | nt
13 | CSCC[C@H](NC(=O)CCCn1nnc2ccccc2c1=O)C(=O)O | 0.2 | 16 | 4 | 0.5 | -6 | -1 | 6.2 | 2.1 | 0.68 | i
14 | CCSc1nnc(NC(=O)C2Cc3ccccc3CN2S(=O)(=O)CC)s1 (centres undefined) | 0.1 | -42 | -41 | -7.4 | -21 | 11 | 6.9 | 5.2 | 0.7 | i
15 | COc1ccc(C)cc1NC(=O)COC(=O)c1ccc2ccccc2n1 | -0.5 | 4 | -5 | 0.1 | nt | 0 | ? | -4.1 | 0.69 | i
16 | Cc1ccc2c(CN(C)Cc3cccc(F)c3)cc(=O)oc2c1C | 1.9 | -18 | -28 | -12 | 21 | 1 | -18 | -1.2 | 0.68 | i
17 | Cc1cccc(N2N=C(C(=O)O)CCC2=O)c1 | 2.8 | 10 | 15 | -0.2 | -14 | 0 | -1.7 | 2.1 | 0.61 | i
18 | O=C(NCc1ccc(F)cc1)C1CCN(C(=O)Nc2ccc(F)cc2)CC1 | 0.4 | -3 | 7 | -1.1 | -15 | 4 | -14 | 1.4 | 0.63 | i
19 | O=C(COc1ccc2ccccc2c1Br)NC(=S)Nc1cccc(CO)c1 | 0.6 | nt | nt | nt | -17 | -1 | nt | 4.0 | 0.71 | nt
20 | O=C(N/N=C/c1cn(-c2ccccc2)nc1-c1cc2ccccc2o1)c1c[nH]c2ccccc12 | -0.1 | 11 | 18 | 3.5 | 37 | 23 | 5.3 | nt | nt | i
21 | CCOC(=O)c1cc(S(=O)(=O)N2CC(C)CC(C)C2)cn1C (centres undefined) | -0.4 | 4 | -6 | -0.6 | -2 | -5 | -7.9 | 2.9 | 0.66 | i
22 | O=S(=O)(NCc1cc(-c2ccc(Cl)cc2)no1)c1ccccc1 | -0.1 | nt | nt | nt | -18 | -3 | nt | 2.5 | 0.68 | nt
23 | O=C(CC1Oc2ccccc2NC1=O)NCc1ccc(Cl)cc1 (centres undefined) | -0.2 | 9 | 16 | 1.4 | -35 | nt | -12 | 5.6 | 0.76 | i
24 | COC(=O)Cn1cc(C(=O)OC)c2ccccc21 | -0.7 | nt | nt | nt | -8 | -2 | nt | 0.2 | 0.71 | nt
25 | Cc1cc(=O)c(C(=O)O)nn1-c1ccc(Cl)cc1 | -0.6 | 15 | 17 | -2.0 | -6 | 0 | 1.5 | 5.1 | 0.65 | i
26 | COc1cc(C(=O)NCCC2=CCCCC2)ccc1OC1CCN(C(C)=O)CC1 | -0.2 | 3 | 1 | -1.7 | 8 | -5 | -15 | 15 | 0.69 | i
27 | Cc1c(F)cccc1NS(=O)(=O)c1ccc(OCCNS(C)(=O)=O)cc1 | -0.2 | -10 | -12 | -2.9 | -1 | 4 | -1.0 | 0.2 | 0.68 | i
28 | CC1CCN(CCCNS(=O)(=O)c2cc(Br)cc3c2N(C(=O)C2CC2)CC3)CC1 | 0.0 | -3 | -2 | -0.9 | 18 | -11 | -2.6 | 5.2 | 0.69 | i
29 | Cc1nn(Cc2ccc(C(=O)Nc3nc4c(C)cccc4s3)o2)c(C)c1Br | -1.4 | nt | nt | nt | 0 | 7 | nt | -4.7 | 0.76 | nt
30 | CCc1nc2ccccc2c(C(=O)OCC(=O)N2CC(C)OC(C)C2)c1C (centres undefined) | 0.4 | -4 | -9 | -0.1 | -6 | 1 | -1.2 | -1.7 | 0.68 | i
31 | Cc1cc([N+](=O)[O-])ccc1NC(=O)C(C)N1CCN(c2ccccn2)CC1 (centres undefined) | 0.6 | 25 | 17 | 1.6 | -4 | 6 | -0.3 | 3.7 | 0.63 | i
32 | O=C(COc1ccccc1F)NCCc1ccc2c(c1)OCCO2 | -2.4 | -4 | -8 | 2.4 | nt | -5 | -1.2 | 5.3 | 0.69 | i
33 | COc1ccc(N(C)S(=O)(=O)c2cccc(C(=O)OC(C)C(=O)NC3CCCCC3C)c2)cc1 (centres undefined) | 0.3 | -5 | -17 | 2.2 | 24 | 0 | 2.0 | 6.1 | 0.7 | i
34 | Cc1csc2ncc(C(=O)NCc3ccco3)c(=O)n12 | -0.4 | 4 | 7 | -0.9 | 3 | 3 | nt | -115 | 0.68 | nt
35 | COc1ccccc1CCNC(=O)CCn1c(=O)c2cccn2c2ccc(F)cc21 | 0.9 | 2 | 5 | -1.5 | 17 | -4 | -0.1 | -1.0 | 0.66 | i
36 | Cc1cn(C(=O)C(C)N2C(=O)c3ccccc3C2=O)c(C)n1 (centres undefined) | -0.4 | 29 | 13 | 0.2 | -4 | -5 | 4.2 | -0.7 | 0.69 | i
37 | O=C(CNC1CCCCC1)Nc1ccc(Cl)cc1 | 0.5 | 17 | 3 | 6.0 | -6 | nt | -5.2 | 5.2 | 0.68 | i
38 | CN(C)S(=O)(=O)c1ccc2oc(SCC(=O)NCC(F)(F)F)nc2c1 | -0.2 | -14* | 6.8* | -1.0* | -16 | -1 | nt | 0.3 | 0.61 | nt
39 | CCCC(=O)Nc1ccc(-c2ccc(NC(=O)CCC)cc2)cc1 | -0.6 | nt | nt | nt | -5 | -3 | nt | 0.5 | 0.7 | nt
40 | Cc1cc(NC(=O)CSCC(=O)N2CCN(c3ccccc3)CC2)no1 | 0.7 | -1 | 0 | -2.2 | nt | -4 | -2.5 | -1.7 | 0.67 | i
41 | Cc1cc(N)ccc1-c1cc2ccccc2oc1=O | 0.0 | 9 | 7 | 2.8 | 7 | -9 | 1.3 | 2.0 | 0.65 | i
42 | Cc1nc(NC(=O)c2cccnc2Cl)sc1C | -6.2 | 9 | 6 | 3.2 | -10 | -1 | -3.4 | 2.5 | 0.7 | i
43 | Cc1c(NS(=O)(=O)c2cccc(C(=O)NCc3ccncc3)c2)c(=O)n(-c2ccccc2)n1C | -0.5 | nt | nt | nt | -14 | -6 | nt | 0.0 | 0.75 | nt
44 | CCOC(=O)C1CCCN(C(=O)CSc2nnnn2C)C1 (centres undefined) | 0.6 | 12 | 10 | 3.5 | nt | 2 | 0.0 | 1.9 | 0.71 | i
45 | CC(C)c1nc(Cl)c(C#N)c2c1COC(C)(C)C2 | 0.3 | -2 | -6 | -1.1 | 1 | -12 | -0.7 | 4.0 | 0.66 | i
46 | CCC(C)(C)C(=O)Nc1cc([N+](=O)[O-])ccc1F | -0.2 | 5 | 4 | -0.9 | -10 | -13 | 0.4 | 4.5 | 0.71 | i
47 | CCSc1nc2ccccc2n1CCC(=O)O | -0.5 | nt | nt | nt | -10 | 3 | nt | 0.3 | 0.72 | nt
48 | CN1CCN(C(=S)c2ccc(-c3cc(Cl)ccc3Cl)o2)CC1 | 1.3 | -48 | -45 | -13 | 24 | -8 | ? | 10.0 | 0.58 | i
49 | CC(C)C(OC(=O)C1=Cc2ccccc2OC1)C(=O)NC1CCCC1 (centres undefined) | 0.5 | nt | nt | nt | 8 | 3 | nt | -8.4 | 0.66 | nt
50 | Cc1ccc(-c2cc(-c3ccccc3)c(C#N)c(Br)n2)cc1 | 0.6 | nt | nt | nt | 13 | 6 | nt | -93 | 0.72 | nt
51 | CO/N=C/Cc1c([N+](=O)[O-])c(C)nn1C | -0.2 | 12 | 13 | 4.2 | -9 | -2 | -1.2 | nt | nt | i
52 | Cc1ccc(C)c(S(=O)(=O)N2CCCC2CNC(=O)C(=O)NC2CCCCCC2)c1 (centres undefined) | 0.9 | 7 | 12 | 1.8 | 4 | nt | -2.6 | 2.3 | 0.7 | i
53 | CCNC(=O)/C(C#N)=C/c1c(N2CCN(c3ccc(OC)cc3)CC2)nc2c(C)cccn2c1=O | 0.2 | -14 | -17 | 25 | 8 | 1 | 15 | 7.3 | 0.73 | i
54 | COc1ccccc1OCC(=O)n1cc(C(=O)c2cc(Cl)cc(Cl)c2O)cn1 | -0.4 | nt | nt | nt | -2 | nt | nt | 4.1 | 0.72 | nt
55 | NC(=O)c1ccc(NC(=O)CSc2nnc(C3CC3)n2C2CC2)cc1 | 4.4 | nt | nt | nt | nt | -4 | 0.0 | 0.1 | 0.7 | i
56 | CCOc1ccccc1CNn1nnnc1N | 0.5 | nt | nt | nt | -29 | -1 | nt | 5.8 | 0.72 | nt
